Screens (PubChem)
Sfp PPTase inh = inhibitors of Bacillus subtilis Sfp phosphopantetheinyl transferase; Q9F4F7; Biochemical Sfp PPTase activity, qHTS; Potency, µM, inactives show max response, negative = inhibition, most hits filed as inhibitors; hit rate 3.5% among 310,000; AID 1490; active = well fitted inhibition curve with a large enough effect; inconclusive = small, poorly fitted or top-dose-only effect, or another doubt; inactive = no such curve, though single readings can be large or run the other way;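 also: the enzyme is Sfp with the accession as filed and its product quenches rhodamine fluorescence; potency is read from the fitted curve at half-maximal effect; 0% = enzyme reaction without inhibitor and -100% = no enzyme wells; top concentration of the series not given in the record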
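Step 1, compound plus 15 nM Sfp-PPTase, 15 min, room temperature. Step 2, add rhodamine-CoA (5 uM) and BHQ-2-YbbR (12.5 uM). Step 3, read 525/598 nm fluorescence at 0 and 30 min.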
TRPV1 PAM = human TRPV1 potentiation. TRPV1-expressing cells, Fluo-8 calcium influx, capsaicin EC20 potentiation; host cell line not named in the record; control for the full effect not named in the record. potentiation, % at 8.33 µM. hit rate 0.02% among 320,000; active means potentiation above 80%; inconclusive means 30% to 80%; inactive means below 30%; also: 0% is about no effect
Target sequence (Q8NER1 whole entry, looked up): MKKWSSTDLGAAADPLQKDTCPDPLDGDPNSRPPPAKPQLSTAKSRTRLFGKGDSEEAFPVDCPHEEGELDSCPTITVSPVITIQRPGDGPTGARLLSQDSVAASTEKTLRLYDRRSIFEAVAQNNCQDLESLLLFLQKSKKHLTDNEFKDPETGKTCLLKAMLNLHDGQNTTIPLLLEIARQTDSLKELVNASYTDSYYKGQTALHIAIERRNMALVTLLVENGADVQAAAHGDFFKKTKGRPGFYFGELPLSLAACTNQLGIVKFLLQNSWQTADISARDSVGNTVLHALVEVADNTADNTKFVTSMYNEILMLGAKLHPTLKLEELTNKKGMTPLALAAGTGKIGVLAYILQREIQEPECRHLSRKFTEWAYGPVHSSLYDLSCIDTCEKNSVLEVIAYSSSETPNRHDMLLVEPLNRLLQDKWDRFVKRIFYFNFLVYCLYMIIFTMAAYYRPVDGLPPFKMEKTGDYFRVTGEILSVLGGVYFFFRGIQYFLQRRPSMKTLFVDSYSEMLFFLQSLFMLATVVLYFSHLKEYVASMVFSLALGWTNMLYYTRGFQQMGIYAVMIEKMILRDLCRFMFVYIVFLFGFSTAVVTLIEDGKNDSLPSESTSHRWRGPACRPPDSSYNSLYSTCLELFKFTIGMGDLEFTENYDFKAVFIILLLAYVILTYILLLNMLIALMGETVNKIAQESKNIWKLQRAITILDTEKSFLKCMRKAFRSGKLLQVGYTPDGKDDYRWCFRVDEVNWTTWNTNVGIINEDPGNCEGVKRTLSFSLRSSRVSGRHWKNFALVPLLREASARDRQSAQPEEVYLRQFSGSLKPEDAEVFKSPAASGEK
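TRPV1-expressing cells were cultured overnight at 35.5C and loaded with Fluo-8 calcium dye for 40 to 90 min at room temperature. After a 10 s baseline, compound was added and calcium influx was read kinetically for 3 min (ex 480/em 520 nm).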
CtBP-E1A inh = inhibitors of CtBP/E1A interaction; AlphaScreen GST-E1A/His-CtBP binding, 1536-well; active compounds read low; control for the full effect not named in the record; activity change, % (no concentration beside the values); hit rate 0.49% among 340,000; AID 651724; in the data active means activity change below about -65%; inconclusive means about -30% to -65%; inactive means above about -30%; also: % is scaled to controls: 0 for no effect and ±100 for the full control effect
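Homogeneous bead-based format: GST-tagged E1A captured on glutathione donor beads, His-tagged CtBP on nickel acceptor beads; compounds precede bead addition by 2 h at 37 °C.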
gsp agonist = gsp mutant agonism. gsp mutant cells, cAMP HTRF, 30 min; control for the full effect not named in the record. Potency, µM (highest dose often 76.9 µM), without a hit: top-dose activation (cAMP increase), most hits filed as activators. hit rate 0.13% among 340,000; active = well fitted activation curve with a large enough effect; inconclusive = small, poorly fitted or top-dose-only effect, or another doubt; inactive = no such curve, though single readings can be large or run the other way; cell line not stated here;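 also: phosphodiesterase inhibitor Ro 20-1724 added with compounds to block cAMP breakdown; potency is read from the fitted curve at half-maximal effect; nearly all actives have a fitted effect of over 60% in size; about a fifth of the inactives were tested at one dose only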
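Cells in DMEM/10% FBS with G418 were pretreated with compounds in DMSO plus […] (300 uM stock) for 30 min at 37C. cAMP was measured by HTRF (cAMP-d2 plus anti-cAMP antibody-K) after 30 min at room temperature.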
Menin-MLL FL inh = inhibitors of human menin-MLL interaction, wild-type MLL peptide; Fluorescence polarization, fluorescein-MLL peptide displacement from menin; FP activity change, % at 61.4 µM; 290,000 tested, under 10 active; AID 1766; inconclusive = falling polarisation curve, or a change in total fluorescence; inactive = total fluorescence flat and polarisation flat or rising; no compound was filed as active; the % refers to the polarisation; negative = inhibition;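 also: % of control where 0% means no effect; inhibitors lower the polarisation; unlabelled MLL peptide was the positive control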
gsp antag = gsp mutant antagonism; hit rate 0.4% among 340,000; Potency, µM (doses to about 76.9 µM), for inactives: at the highest dose activity change, negative = inhibition, usual class: inhibitors; gsp-mutant cells, cAMP HTRF, 30 min; control for the full effect not named in the record; active = falling curve of any shape with a large fitted effect; inconclusive = falling curve, mostly with a smaller effect; inactive = flat or rising curve; cell line not stated here;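 also: intracellular cAMP measured with PDE inhibitor Ro 20-1724 present during compound exposure; potency is read from the fitted curve at half-maximal effect; % is scaled to controls: 0 for no effect and ±100 for the full control effect; nearly all actives have a fitted effect of over 65% in size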
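Cells, 2000/well, grown 16–24 h in DMEM 10% FBS with 0.5 mg/ml G418, then compounds plus […] (300 uM addition stock), 30 min at 37C. cAMP read by HTRF (cAMP-d2 and anti-cAMP antibody-K in lysis buffer) after 30 min RT.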
ClpP mod = qHTS Assay for Activators of ClpP. hit rate 1.9% among 340,000. purified B. subtilis ClpP, FRET peptide cleavage, 20 min. Potency, µM (top dose mostly 57.5 µM), for the others: at the top dose activity change, negative = active. AID 651965, 2013; active = well fitted falling curve with a large enough effect; inconclusive = small, poorly fitted or top-dose-only effect; inactive = no such curve, though single readings can be large or run the other way; also: potency is read from the fitted curve at half-maximal effect; the source files actives as falling curves though it sought activators and does not explain the sign; nearly all actives have a fitted effect of over 65% in size; many hits overshoot -100%
Target sequence (P80244 whole entry, looked up): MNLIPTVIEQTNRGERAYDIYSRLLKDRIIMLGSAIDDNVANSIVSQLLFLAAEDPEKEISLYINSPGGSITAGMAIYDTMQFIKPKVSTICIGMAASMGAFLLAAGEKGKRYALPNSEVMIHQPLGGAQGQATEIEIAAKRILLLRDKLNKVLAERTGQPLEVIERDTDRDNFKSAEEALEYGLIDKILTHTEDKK
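Purified B. subtilis ClpP, 10 microg/mL final in Tris/HCl pH8 with KCl, BSA, glycerol and Tween-20, cleaved an Abz/nitrotyrosine-quenched decapeptide. Fluorescence (ex 320, em 430) was read at 0 and 20 min at room temperature. Delta was normalized to 5.8 microM ADEP and DMSO/no-enzyme controls.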
Active calls of the source: *; ? = inconclusive; nt = no result given; [ ] = another dose, or the depositor's remark.

#	smiles	Sfp PPTase inh	TRPV1 PAM	CtBP-E1A inh	gsp agonist	Menin-MLL FL inh	gsp antag	ClpP mod
1	CCN(CC)c1ccc(NC(=S)NCC2CCCO2)cc1 (configuration not stated)	-28%	1	-9	-1%	15	-14%	nt
2	CCOc1cc(NC(=S)Nc2ccc(Cl)cc2)c(OCC)cc1NC(C)=O	-9%	25	-2	0%[15.4 µM]	1.8	-4%	?
3	Cc1cc(=O)[nH]c(SCCc2ccccc2)n1	8%	-31	-4	1%	1.1	4%	nt
4	O=C1CCCN1CCCNC(=S)Nc1ccc(F)c(Cl)c1	14µM*	7	-3	-3%[15.4 µM]	-2.0	5%	nt
5	Cn1c(C(O)c2ccccc2F)nc(Cl)c1Cl (configuration not stated)	15%	6	-7	15%	1.6	9%	0.1%
6	CC(=O)Nc1ccc(NC(=O)CSc2nc3nc(-c4cccs4)cc(C(F)(F)F)c3c(=O)[nH]2)cc1	-26%	5	-1	44%	-4.5	-5%	-23%
7	N#C/C(=C\c1ccc([N+](=O)[O-])cc1)c1ccccn1	3%	-5	-1	9%[15.4 µM]	4.0	14%	-3.7%
8	COc1ccc(/C=C/C(=O)Nc2cc(S(=O)(=O)N3CCOCC3)ccc2OC)cc1	nt	nt	-7	2%	nt	16%	nt
9	COc1cc2cc(C(c3nnnn3C3CCCC3)N3CCCCC3)c(=O)[nH]c2cc1OC (configuration not stated)	5%	16	1	-42%[inhibitor]	-0.1	-19%	22µM*
10	Fc1ccc(-n2c(=S)[nH]c3cccnc32)cc1	28µM*	18	12	-15%[15.4 µM]	4.6	1%	-0.3%
11	Cc1c(O)ccc2c(CN(C)Cc3ccccc3)cc(=O)oc12	17%	-6	-11	-28%[15.4 µM]	-0.7	-10%	nt
12	CCOC(=O)c1cnn(-c2ccccc2)c1NC(=O)CN1CCOCC1	2%	-5	-9	-4%	3.8	3%	-2.3%
13	Cc1nn(-c2ccc(F)cc2F)c(=O)c2noc(C)c12	22%	8	nt	-1%	1.2	6%	-0.2%
14	CN(C)S(=O)(=O)c1cc(NC(=O)COC(=O)Cc2ccc(Cl)cc2Cl)ccc1Cl	17%	-2	-5	-27%	nt	2%	-1.5%
15	COC(=O)c1cccc(NC(=S)Nc2cccc(Cl)c2C)c1	11%	13	5	2%[15.4 µM]	0.5	7%	-2.5%
16	CCOC(=O)c1sc(NC(=O)C(C)Sc2nc(N)cc(=O)[nH]2)nc1C (configuration not stated)	-12%	-2	-11	9%[15.4 µM]	2.4	-2%	nt
17	Nc1nc(SCC(=O)N2CCCCCC2)[nH]c(=O)c1NC(=O)c1ccco1	10%	2	-4	17%	-5.1	6%	1.4%
18	CNc1ncnc2c1ncn2[C@@H]1O[C@H](CO)[C@@H](O)[C@H]1O	-10%	6	0	nt	nt	-2%	0.4%
19	COc1cccc(C(=O)OCC(=O)NCCCc2ccccc2)c1	0%	-9	-7	-23%	2.8	-11%	-4.8%
20	C=C(C)Cn1c(SCC(=O)O)nnc1-c1ccc(C(C)(C)C)cc1	19%	-7	0	-34%	0.6	-12%	-1.3%
21	CC(CN1CCOCC1)OC(=O)c1ccccc1Br (configuration not stated)	11%	-4	8	13%	3.7	0%	2.9%
22	CCCOc1ccc(CCc2n[nH]c(=S)n2Cc2ccccc2)cc1	-8%	-3	-3	-9%	-4.3	-16%	-1.1%
23	CCOc1ccc(-n2cc(C(=O)c3cc(Cl)ccc3O)cc(C#N)c2=O)cc1	9%	-3	-2	-4%[15.4 µM]	?	-23%	nt
24	C/C(=C\c1ccccc1)C(=O)Nc1nccs1	10%	-9	-18	-1%[15.4 µM]	0.0	-8%	nt
25	CSCCC(NS(=O)(=O)c1ccc2c(c1)Cc1cc(S(=O)(=O)NC(CCSC)C(=O)O)ccc1-2)C(=O)O (configuration not stated)	9%	8	-18	?	-0.6	5%	nt
26	O=C(Cc1ccccc1[N+](=O)[O-])NCCc1ccc(F)cc1	26%	-8	nt	-2%	5.2	4%	-4.6%
27	CC[C@H](C)[C@@H]1NC(=O)c2cc([N+](=O)[O-])cc(F)c2NCCCC[C@@H](C(N)=O)NC(=O)[C@H](CCCCN)NC1=O	0%	-1	nt	0%	-1.0	6%	1.4%
28	O=c1[nH]cc(N=Cc2cc(Cl)cc(Cl)c2O)c(=O)[nH]1	10%	-10	nt	-1%	?	-8%	-2.6%
29	COc1ccc(NC(=O)CC2C(=O)N(C)C(=S)N2Cc2ccco2)cc1 (configuration not stated)	-2%	-4	-3	-28%	3.9	-2%	0.1%
30	CN(C)S(=O)(=O)c1ccc(NC(=O)c2cc(-c3cccs3)nc3ccccc23)cc1	-8%	-10	3	3%	7.0	-2%	16µM*
31	O=C(CCS(=O)(=O)c1ccccc1)Nc1ccc2c(c1)C(=O)NC2=O	1%	4	5	-8%[15.4 µM]	-5.8	3%	-1.0%
32	Nc1nonc1-n1nnc(C(=O)N/N=C/c2ccccc2Cl)c1CSc1ccccc1	-11%	?	0	9%[15.4 µM]	4.8	-25%	nt
33	O=C(Nc1nnc(C2=COCCO2)o1)c1cccc(Br)c1	15%	-2	?	0%	nt	-1%	0.6%
34	O=C(c1ccc(Cl)nc1)N1CCN(C/C=C/c2ccccc2)CC1	16%	-6	-15	-20%[15.4 µM]	1.0	9%	nt
35	Cc1cccnc1NC(=O)CN1C(=O)c2ccccc2S1(=O)=O	nt	23	2	9%[15.4 µM]	nt	4%	nt
36	COC(=O)C1=C(C)NC(=O)/C1=C\c1cc(C)n(-c2cc(C)cc(C)c2)c1C	-12%	3	-3	-17%	1.0	-16%	-0.8%
37	C=CCNC(=O)C12CCC(C)(C(=O)[C@H]1Br)C2(C)C (some centres not stated)	13%	0	4	-9%[15.4 µM]	2.3	7%	nt
38	CCN(CC)C(=O)c1ccccc1NC(=O)c1cccc(S(=O)(=O)N(CC)CC)c1	5%	1	0	-1%[15.4 µM]	6.5	11%	-4.1%
39	COc1ccc(/C=C/C(=O)N(C)C2CCCCC2)cc1Br	6%	-2	0	13%[15.4 µM]	3.2	-7%	1.3%
40	CC1(C)NC(=O)N(CCOc2ccc([N+](=O)[O-])cc2)C1=O	12%	-25	nt	1%	-0.7	0%	-1.9%
41	Cc1cc2ccccn2c1C(=O)c1ccccc1F	15%	-17	-1	29%	2.8	7%	nt
42	CC(=O)c1cccc(NC(=O)N2CCCC2C(=O)NCCC(C)C)c1 (configuration not stated)	20%	-10	8	-24%	2.8	10%	-0.5%
43	Cc1cc(Br)ccc1NC(=O)CN(C)C(=O)CCSc1ccc(F)cc1	nt	1	-6	-34%	nt	-3%	-3.5%
44	O=C(CNS(=O)(=O)c1cccc(Br)c1)NCCCc1ccccc1	-3%	2	5	-10%[15.4 µM]	-1.6	-4%	nt
45	O=C(CCN1C(=O)c2ccccc2C1=O)N1CCN(C2c3ccccc3-c3ccccc32)CC1	2%	-11	2	9%	1.5	-12%	-2.8%
46	CCN1CCN(c2cc3c(nn2)Oc2ccccc2N3C)CC1	12%	4	?	-11%	-0.2	-8%	28µM*
47	CCCCc1c(C)[nH]c2nc3ccccc3n2c1=O	10%	4	1	-1%[15.4 µM]	-4.9	5%	1.8%
48	O=C(c1ccc(Cl)c(S(=O)(=O)N2CCOCC2)c1)N1CCCC1	12%	-12	6	2%[15.4 µM]	0.2	4%	nt
49	c1ccc(-c2csc3ncn4nnnc4c23)cc1	18%	7	1	18%	3.4	0%	-13%
50	CC[C@]12c3[nH]c4ccc(OC)cc4c3CCN1C(=O)C(CC(=O)NCCCOC)C[C@@H]2C(=O)N1CCN(C(=O)C2CC2)CC1 (some centres not stated)	nt	nt	0	nt	nt	2%	3.1%

New compounds follow:
#	smiles	Sfp PPTase inh	TRPV1 PAM	CtBP-E1A inh	gsp agonist	Menin-MLL FL inh	gsp antag	ClpP mod
51	O=C(COc1ccccc1)Nc1cc2c3c(c1)CC(=O)N3CCC2	nt	0	7	-25%	nt	11%	1.2%
52	COc1cc(OC)cc(C(=O)NNC(=O)c2ccc3ccccc3n2)c1	nt	-10	-3	-8%	nt	-9%	-1.8%
53	CC(C)(C)c1ccc(/C=C(\C#N)C(=O)NCCN2CCOCC2)cc1	-2%	-23	2	-2%[15.4 µM]	4.8	16%	2.0%
54	CCCc1nnc(SCC(=O)Nc2ccc(OC)cc2)n1N	-5%	15	6	15%	1.4	8%	1.5%
55	O=C(c1ccncc1)N1CCN(c2ccc(F)cc2)CC1	14%	4	1	2%	-1.8	10%	-0.7%
56	CC1CCc2nn(CC(=O)NCCN3CCCCC3C)cc2C1 (configuration not stated)	14%	?	0	-7%	0.5	12%	1.9%
57	O=C(N/N=C/c1ccncc1)c1ccc2c(c1)OCO2	13%	-5	18	7%[15.4 µM]	-7.0	nt	nt
58	O=C1C=C(c2cc(Cl)cc(Cl)c2)C[C@@H](c2ccc(F)cc2)C1	nt	8	5	-37%[inhibitor]	nt	-6%	-0.5%
59	O=C(NCc1cccnc1)C(=O)NCC1OCCN1S(=O)(=O)c1ccc(F)cc1 (configuration not stated)	-14%	1	2	-70%[inhibitor]	-0.8	8%	1.3%
60	COc1ccc(NC(=O)NC2(C(=O)N3CCCCC3)CCCCC2)cc1	13%	2	5	-8%	-4.8	12%	nt
61	CCCCCc1cc(=O)oc2c(C(CCN3CCCC(C)C3)c3ccc(OC)cc3)c(OC)cc(OC)c12 (configuration not stated)	25µM*	-3	1	nt	12	-1%	?
62	O=C(O)C1Cc2ccccc2CN1C(=O)COc1ccc(Cl)cc1 (configuration not stated)	21%	-20	-4	0%	2.3	8%	nt
63	Cc1ccc(N(C(=O)Cn2nnc3ccccc32)C(C(=O)NCc2ccco2)c2ccc(C)o2)cc1 (configuration not stated)	-26%	3	4	24%	1.0	-25%	0.5%
64	CCC(=O)Nc1sc(C(=O)Nc2ccccc2F)c(C)c1C(=O)OC	6%	-6	1	5%[15.4 µM]	-7.3	-15%	nt
65	CCOC(=O)c1c(CC(C)C)csc1NC(C)=O	12%	8	7	6%	8.1	-2%	-1.0%
66	O=C(COC(=O)Cn1cnc2ccccc2c1=O)NCc1ccccc1	nt	-1	-6	-13%	nt	0%	-9.4%
67	CC(C)(C)OC(=O)N[C@@H](Cc1ccccc1)C(=O)N[C@@H](CO)[C@H](O)[C@@H]1C[C@@H]1C(=O)N1CCCC1	25%	-6	-2	nt	6.3	10%	-0.4%
